D2 ag: human D2 receptor agonism in beta-arrestin assay; P14416; DiscoveRx PathHunter D2 beta-arrestin, luminescence, 90 min; 100% = 57 uM dopamine signal; activation, % (no concentration beside the values); 360,000 tested, 0.084% active; in the data active = activation above about 40%; inconclusive = about 15% to 40%; inactive = below about 15%; further: compound concentration not given in the record; the text of the record calls up to 30% inactive
Target sequence (P14416 whole entry, looked up): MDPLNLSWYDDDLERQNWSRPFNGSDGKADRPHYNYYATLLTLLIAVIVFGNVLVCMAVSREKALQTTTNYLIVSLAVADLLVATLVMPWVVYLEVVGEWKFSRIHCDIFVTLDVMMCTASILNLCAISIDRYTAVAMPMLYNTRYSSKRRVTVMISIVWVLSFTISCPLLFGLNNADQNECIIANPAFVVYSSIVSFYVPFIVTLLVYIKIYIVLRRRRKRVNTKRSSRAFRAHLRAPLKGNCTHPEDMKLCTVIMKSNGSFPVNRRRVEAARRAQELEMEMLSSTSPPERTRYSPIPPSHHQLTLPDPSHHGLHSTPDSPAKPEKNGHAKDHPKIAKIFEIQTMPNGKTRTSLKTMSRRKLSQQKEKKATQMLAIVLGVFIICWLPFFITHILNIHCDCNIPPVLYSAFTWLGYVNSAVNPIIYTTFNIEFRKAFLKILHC
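DiscoveRx PathHunter D2 beta-arrestin cells (2,100/well) attached overnight, then compound-stimulated 90 min at 37 C in HBSS/10 mM HEPES/0.1% Tween-20 buffer; beta-galactosidase complementation read by luminescence after 1 h at ambient temperature. Dopamine 57 uM final (EC100) as control.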
CtBP-E1A inh: CtBP/E1A binding inhibition; AlphaScreen GST-E1A/His-CtBP binding, 1536-well; active compounds read low; control for the full effect not named in the record; activity change, % (test concentration not listed); 340,000 tested, 0.49% active; AID 651724; in the data active means activity change below about -65%; inconclusive means about -30% to -65%; inactive means above about -30%; further: on the % scale 0 is the no-effect control and ±100 the full control effect
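In 5 uL wells, 23 nL compound meets equimolar GST-E1A and His-CtBP (5X stock 125 nM each) for 2 h, 37 °C. Beads (5X, 50 ug/mL) then 1 h, 37 °C, dark.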
TRPML1 agonist: human mucolipin-1 channel agonism; AID 624414; 410,000 tested, 0.12% active; TRPML1-expressing cells, Ca2+ dye fluorescence, FDSS; host cell line not named in the record; reference of the full effect not given here; activation, % (no concentration beside the values); Q9GZU1; in the data active = activation above about 50%; inconclusive = about 30% to 50%; inactive = below about 30%; further: 0% is about no effect; the text of the record puts the active cut at 80%
Target sequence (Q9GZU1 whole entry, looked up): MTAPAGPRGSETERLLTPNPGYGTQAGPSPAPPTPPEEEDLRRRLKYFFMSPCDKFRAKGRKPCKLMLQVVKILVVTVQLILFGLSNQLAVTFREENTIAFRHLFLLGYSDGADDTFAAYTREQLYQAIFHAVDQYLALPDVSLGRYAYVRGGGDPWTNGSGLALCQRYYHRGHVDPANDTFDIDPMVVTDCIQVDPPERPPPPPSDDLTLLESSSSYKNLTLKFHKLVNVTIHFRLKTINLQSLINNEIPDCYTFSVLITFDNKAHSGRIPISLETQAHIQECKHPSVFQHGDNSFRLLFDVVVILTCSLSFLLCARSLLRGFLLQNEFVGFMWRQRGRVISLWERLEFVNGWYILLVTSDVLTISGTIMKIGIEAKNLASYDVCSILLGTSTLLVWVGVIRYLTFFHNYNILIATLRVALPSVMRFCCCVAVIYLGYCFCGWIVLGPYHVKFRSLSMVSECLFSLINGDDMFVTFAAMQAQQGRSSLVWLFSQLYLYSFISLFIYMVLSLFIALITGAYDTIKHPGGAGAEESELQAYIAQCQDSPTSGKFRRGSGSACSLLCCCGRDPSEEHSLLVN
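Agonist activity was taken from a 110 s kinetic Ca2+ dye read on the FDSS after pinning compounds onto TRPML1-DL cells. The cells were seeded at 1,500/well with Tet inducer, incubated about 16 h, then dye-loaded at room temperature.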
PINK1 expr mod: modulators of PINK1 expression | 410,000 tested, 0.2% active | PINK1 immunofluorescence, high-content cytometry, 24 h | AID 624263 | Potency, µM (series often up to 76.6 µM), without a hit: top-dose activation (PINK1 increase), hits mostly activators; active = well fitted activation curve with a large enough effect; inconclusive = small, poorly fitted or top-dose-only effect; inactive = flat fitted curve, though single readings scatter; cell line not stated here;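 further: potency means the concentration at half of the fitted maximal effect; % of control where 0% means no effect; nearly all actives have a fitted effect of over 65% in size; a mitochondrial uncoupler was the plate control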
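Stable cell line, 250 cells/well, 12 h attachment; compounds pinned at 5 concentrations, 24 h; CCCP control. Fixed with nuclear dye, primary antibodies 12 h at 10 degrees C, secondary plus cell stain; laser-scanning cytometer read.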
Six1-Eya2 inh: inhibitors of human Six1/Eya2 interaction; AID 651725; AlphaScreen GST-Six1/His-Eya2 binding, biochemical; active compounds read low; control for the full effect not named in the record; activity change, % (concentration not given with the values); 360,000 tested, 0.56% active; Q15475+O00167; in the data active = activity change below about -65%; inconclusive = about -30% to -65%; inactive = above about -30%; further: on the % scale 0 is the no-effect control and ±100 the full control effect
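Homogeneous AlphaScreen proximity assay pairing GST-Six1 with His-tagged Eya2 (added as 5X mix: 250 nM and 500 nM) in 50 mM Tris pH 8.0, 300 mM NaCl, 1 mM TCEP. Glutathione donor and nickel acceptor beads; 1 h, 37 °C, dark.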
TRPML1 inh: inhibitors of human TRPML1 channel; Q9GZU1; TRPML1-inducible cells, Ca2+ dye fluorescence, FDSS; active compounds read low; inhibition of EC80 agonist-evoked calcium signal; activity change, negative = inhibition, % (concentration not given with the values); 390,000 tested, 0.02% active; AID 624415; in the data active means activity change below about -50%; inconclusive means about -30% to -50%; inactive means above about -30%;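 further: stimulus is agonist 54-4 at its EC80 concentration; on the % scale 0 is the no-effect control and ±100 the full control effect; the text of the record puts the active cut at -80%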
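TRPML1-DL cells, Tet-induced overnight (~16 h, 37 °C) at 1,500 cells/well, were loaded with Ca8 no-wash dye plus quencher for 45-90 min at room temperature. Compounds were pinned during FDSS kinetic reading; agonist 54-4 at EC80 (4 uM final) then added.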
* = called active by the depositor; ? = inconclusive; / = not tested or not shown; [ ] = remark or other dose. No enrichment for hits (roughly 1% active in at least one column).

SMILES	D2 ag	CtBP-E1A inh	TRPML1 agonist	PINK1 expr mod	Six1-Eya2 inh	TRPML1 inh
COc1ccc(-c2nc(SCc3ccccc3)n(C(=O)c3ccco3)n2)cc1	0.3	2	-0.4	13%[38.3 µM]	5	9
COc1cccc(CNC(=O)Cn2nc3c(cc2=O)CCCC3)c1OC	/	/	-0.3	0.3%	/	-11
O=C(O)C1(c2ccccc2)CCN(S(=O)(=O)c2cccs2)CC1	-5.7	-8	0.9	-0.7%	-11	-10
CC12CCC(C(=O)N/N=C/c3ccc(O)cc3O)(OC1=O)C2(C)C (configuration not stated)	-2.3	-88*	-0.1	-2.9%	-68*	2
Cc1ccc2cc(C)c(SCC(=O)Nc3cc(C)on3)nc2c1	-6.9	0	-0.3	9.1%	4	5
Cc1cc(C)nc(NC(=O)NS(=O)(=O)N2CCCCCC2)n1	-2.7	1	0.1	1.0%	-2	15
c1ccc(C2(Cn3ccc4ccccc43)OCCO2)cc1	-1.9	32	1.1	9.2%[38.3 µM]	18	62
Cc1cc(C)c(C(=O)Nc2ccc3c(c2)OCCO3)c(C)c1	0.0	-2	-0.7	1.5%	7	-5
COc1ccc(C(=O)CCN2CCC(C)CC2)cc1	-4.7	3	/	-0.5%	6	/
O=C(NCC(=O)N1CCN(c2ccccc2F)CC1)c1cccs1	5.5	-5	0.4	0.0%	-3	9
O=C(O)Cn1c(=O)c2c(c3ccccc31)CCC2	1.6	8	1.1	-0.4%	0	2
COC(=O)[C@@H](C)NC(=O)c1ccc2oc(CCc3ccccc3)nc2c1	-4.0	9	-0.1	0.8%	0	4
Cc1ccccc1NC(=O)C(C)OC(=O)CCC(=O)c1ccccc1 (configuration not stated)	-3.8	-4	-0.7	-0.4%	6	-6
CCOC(=O)c1ccc(NC(=O)CSc2nc3c(c(=O)[nH]2)CN(Cc2ccccc2)CC3)cc1	/	/	0.5	1.1%	/	11
COc1ccc2nc(N3CCCC(C(=O)NCCc4ccc(OC)c(OC)c4)C3)sc2c1 (configuration not stated)	6.3	1	-0.3	2.2%	-9	44
COc1ccc(C(=O)N2CCC2(C)C(=O)NC(C)C)cc1 (configuration not stated)	-4.4	3	0.0	-0.6%	-2	24
COc1ccc(CNC(=O)C2CCN(C(=O)c3ccc(-n4ccc5ccccc54)s3)CC2)cc1	/	/	1.5	2.8%	/	0
CCc1ccccc1NC(=O)c1ccc(Cn2nc(N3CCN(c4ccccc4)CC3)ccc2=O)o1	/	/	3.0	0.6%	/	-14
COc1ccc(/C=C(/NC(=O)c2ccco2)C(=O)N2CCOCC2)cc1	2.3	2	-1.2	-1.9%	2	-6
COc1ccc(OCC(=O)Nc2c(Cl)ccc3nsnc23)cc1	-6.7	25	0.3	2.5%	-12	4
CCOc1ccc(NC(=O)CN(C)C(=O)c2ccc(OCc3ccccc3)c(OC)c2)cc1OCC	2.1	-3	0.0	0.4%	-9	16
CN1C(C(=O)c2ccccc2)=C(NC(=O)c2ccccc2Br)c2ccccc2S1(=O)=O	/	/	-0.2	-0.3%	/	-6
COc1ccc(C)c2sc(NC(=O)c3ccc(S(=O)(=O)N(C)C)cc3)nc12	/	/	-0.1	2.5%	/	0
COc1ccc(C(=O)N/N=C/c2c(CO)cnc(C)c2O)cc1	-1.1	/	1.2	-0.6%	?	16
CC(=O)N1CCc2[nH]c3ccc(C)cc3c2C1	-1.7	-3	1.5	-2.2%	3	5
Next section:
SMILES	D2 ag	CtBP-E1A inh	TRPML1 agonist	PINK1 expr mod	Six1-Eya2 inh	TRPML1 inh
COc1ccc(O)c(/C=N/N2CCOCC2)c1	-1.7	-2	-0.1	1.5%	-4	22
O=[N+]([O-])c1ccc(S(=O)(=O)N/N=C/c2ccsc2)cc1	1.0	9	0.6	0.4%	-1	42
Cc1cccc(NC(=O)c2ccc(NCCO)c([N+](=O)[O-])c2)n1	-6.7	-2	-0.5	1.2%	2	-3
O=c1[nH]c(C2CCN(S(=O)(=O)c3ccc4c(c3)OCCO4)CC2)nc2c1nnn2Cc1ccccc1	-2.8	-1	1.1	0.6%	-19	7
CNC[C@H]1OCc2ccccc2-c2ccccc2C(=O)N([C@H](C)CO)C[C@H]1C	-1.1	-19	-0.5	1.6%	12	-5
O=C(Nc1ccccc1)N1CCN(c2ccccn2)CC1	-2.3	-1	3.0	-1.1%	0	15
O=C(NCCN1CCOCC1)C(=O)NCC1OCCN1S(=O)(=O)c1ccc(F)cc1 (configuration not stated)	-1.7	7	-0.3	1.3%	-2	-14
COc1ccc(CCNS(=O)(=O)c2cn(C)c(=O)n(C)c2=O)cc1	2.4	0	-0.3	1.9%	2	-9
Cc1ccc(CN2CCN(c3ncccn3)CC2)o1	?	0	-0.2	?	-8	-14
O=C(CSc1nncn1-c1cccnc1)Nc1ccccc1C(F)(F)F	-3.1	1	-0.5	1.1%	6	1
O=C(N/N=C/c1cc([N+](=O)[O-])ccc1Cl)c1cc(-c2ccccc2)nc2ccccc12	-1.9	6	0.7	4.0%	3	17
CCOC(=O)c1cnn(CCOC(=O)C2CC2)c1NC(=O)C1CC1	-2.7	3	-0.7	-5.7%[38.3 µM]	5	19
CCCCCCN1C[C@H](n2cc(COC(=O)c3ccccc3)nn2)[C@@H](O)C[C@@H]1c1ccc(OC)cc1	-4.9	5	1.2	4.4%	-1	-7
CCN(CC)CCN(C(=O)c1ccc(N2C(=O)CCC2=O)cc1)c1nc2cc3c(cc2s1)OCCO3	-7.4	/	0.3	2.7%	5	6
O=C(CSc1nc2ccccc2c(=O)n1-c1ccccc1F)NC1CCS(=O)(=O)C1 (configuration not stated)	1.8	3	-0.7	-1.3%	0	9
O=C(O)c1cc(-c2ccc(/C=N/Nc3ccc([N+](=O)[O-])cn3)o2)ccc1Cl	-3.9	0	-0.1	-0.4%	-14	6
S=c1[nH]nc(C2CCCCC2)n1/N=C/c1c(Cl)cccc1Cl	-2.6	-6	0.2	9.6%	1	18
Cc1cc(=O)oc2cc(OCC(O)CN3CCc4ccccc4C3)ccc12 (configuration not stated)	3.1	3	-0.5	-0.9%	?	14
O=C(Cc1ccc(S(=O)(=O)N2CCOCC2)s1)Nc1ccccc1Br	-3.9	/	-0.5	-0.9%	-3	11
COc1ccc(Cn2nnnc2C(c2cccs2)N2CCCCCC2)cc1 (configuration not stated)	-0.7	9	0.4	4.3%	-1	6
COc1cc(C(=O)Nc2ccccc2C(=O)Nc2ccccn2)cc(OC)c1OC	5.5	/	/	4.3%	-3	/
Cn1cc(/C=N/NC(=O)c2cccc([N+](=O)[O-])c2)c2ccccc21	-5.6	5	-0.7	14%	-1	-1
CC(=O)Nc1ccccc1NC(=O)C/C(C)=N/NC(=O)C(=O)Nc1cccc(Cl)c1C	-3.0	/	1.0	2.7%	-7	-8
O=C(NCc1ccc2c(c1)OCO2)c1ccc(CS(=O)(=O)c2cccc(C(F)(F)F)c2)o1	-1.9	1	-0.5	2.4%	0	5
Cn1cccc1/C=C1\SC(=S)N(NC(=O)c2ccc(F)cc2)C1=O	-4.6	?	2.1	1.3%	?	-8

6 entries drawn at random from the list so far, as already listed:
SMILES	D2 ag	CtBP-E1A inh	TRPML1 agonist	PINK1 expr mod	Six1-Eya2 inh	TRPML1 inh
S=c1[nH]nc(C2CCCCC2)n1/N=C/c1c(Cl)cccc1Cl	-2.6	-6	0.2	9.6%	1	18
COc1ccc(O)c(/C=N/N2CCOCC2)c1	-1.7	-2	-0.1	1.5%	-4	22
O=C(O)c1cc(-c2ccc(/C=N/Nc3ccc([N+](=O)[O-])cn3)o2)ccc1Cl	-3.9	0	-0.1	-0.4%	-14	6
COc1ccc(CCNS(=O)(=O)c2cn(C)c(=O)n(C)c2=O)cc1	2.4	0	-0.3	1.9%	2	-9
O=[N+]([O-])c1ccc(S(=O)(=O)N/N=C/c2ccsc2)cc1	1.0	9	0.6	0.4%	-1	42
O=C(Nc1ccccc1)N1CCN(c2ccccn2)CC1	-2.3	-1	3.0	-1.1%	0	15

The list goes on:
SMILES	D2 ag	CtBP-E1A inh	TRPML1 agonist	PINK1 expr mod	Six1-Eya2 inh	TRPML1 inh
CCOP(=O)(OCC)c1nc(-c2ccccc2)oc1NCc1ccccc1	-1.0	2	0.1	1.9%	-5	-9
CCOc1ccc(N(CC(=O)NC(C(C)C)C(C)C)S(=O)(=O)c2ccc(OC)c(OC)c2)cc1	-2.9	/	1.8	3.9%	0	-19
CC1CCCCN1Cc1nc2c(c(=O)n(C)c(=O)n2C)n1Cc1c(F)cccc1Cl (configuration not stated)	-0.9	2	0.3	0.8%	5	-7
CCNC(=O)NC(=O)C(C)OC(=O)c1oc2ccc(OCC)cc2c1C (configuration not stated)	-1.1	1	0.2	0.8%	-1	12
C[C@H](CO)N1C[C@H](C)[C@@H](CN(C)Cc2ccncc2)Oc2c(NS(=O)(=O)c3ccc(Cl)cc3)cccc2C1=O	-0.2	4	-0.6	3.6%	1	-14
COc1ccc(C2Nc3ccccc3C(=O)N2NS(=O)(=O)c2ccccc2)c(OC)c1 (configuration not stated)	-4.9	0	-0.4	2.7%	8	1
O=S(=O)(NCCCc1ccccc1)c1ccc(Br)cc1	-1.4	/	-0.8	6.6%	7	1
CCS(=O)(=O)c1ccc(O)c(NC(=O)COc2ccc(C)cc2)c1	-3.6	3	-0.1	1.0%	-12	1
COc1ccc(-c2nnc(-c3ccc(N)cc3)o2)cc1	0.0	-1	0.0	-1.9%	-2	-7
CCOc1ccc(NC(=O)CN(C)C(=O)CSCc2ccc(C)cc2)cc1OCC	-0.1	-22	0.8	0.4%	-12	-4
Cc1ccccc1N1C(=O)C2ON(c3ccccc3)C(c3cccnc3)C2C1=O (configuration not stated)	-3.2	1	-0.9	-2.4%	-1	10
COC(=O)c1cc(C)nc(Sc2ccccc2NC(C)=O)n1	-1.4	3	3.7	-0.5%	1	10
Cc1nc(Nc2ccc(Cl)cc2)c(C#N)c(=O)[nH]1	-3.6	-4	1.4	1.7%	-1	?
CCOC(=O)[C@]12CCCC=C1N(Cc1cccc3ccccc13)C(=O)[C@H](CC(=O)NCc1cccc3ccccc13)C2	/	3	-0.1	-0.6%	-11	/
Cc1cccc(N/C(N)=N/c2nc(CSc3ccc(Cl)cc3)cc(=O)[nH]2)c1	-4.4	/	-0.2	5.1%	-4	-9
O=C(N/N=C/c1cccc(OC(=O)c2ccco2)c1)c1ccc(F)cc1	-1.8	10	-0.7	-0.3%	-12	-1
COC(=O)c1ccccc1NC(=O)N1CCCC1	-3.0	4	1.4	-0.4%[38.3 µM]	-1	2
Cc1ccc(O)c(NC(=O)c2cc(-c3ccccc3O)no2)c1	/	/	0.7	1.8%	/	8
CCOC(=O)[C@H]1[C@H]2COc3ccccc3[C@@H]2N2C(=O)[C@@H](CO)NC(=O)[C@@]12C	-3.2	2	1.2	1.5%	6	-12
CCCc1cc(=O)[nH]c(Nc2ccc(OCC)cc2)n1	/	/	2.6	0.7%	/	3
CN(CCO)c1ccc(-c2nn(C)c(=O)c3ccccc23)cc1[N+](=O)[O-]	3.8	/	0.6	3.2%	4	-22
